Source: PubChem BioAssay
CapD inh: blocks the Bacillus anthracis CapD enzyme; purified CapD enzyme, fluorescence intensity read-out; stronger effect = lower value; some hits fall short of the stated cut; z-score (no concentration beside the values); actives 0.23% (n = 140,000); AID 492967;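 active means z-score under -4 in either of two replicates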;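 further: stock transfer was 100 nL into about 40 µL; score is relative to mean and spread of the plate; one replicate is shown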
AID504770: E. coli YBA685 growth inhibition, screen for V. cholerae RctB inhibitors. E. coli YBA685 rctB-dependent plasmid, OD600 growth, 3 h; stronger effect = lower value. z-score (concentration not given with the values). actives 0.27% (n = 130,000). AID 504770;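 active means z-score under -2 on both plates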;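 further: wells of about 30 µL received 100 nL stock; score is relative to mean and SD of the test wells; the first replicate is given; strong numbers were not always called active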
Active calls of the source: *; · = no result given.

canonical_smiles	CapD inh	AID504770
CC(=O)Nc1ccc(CN(CCN(C)C)Cc2ccccc2)cc1	-0.295	-0.6
Cc1cc(Br)ccc1NC(=O)Cn1c2ccccc2c(=O)c2ccccc21	4.82	·
C=CCn1c(SCC(=O)N2CCN(CCO)CC2)nc2sc3c(c2c1=O)CCC3	-0.245	0.05
Nc1nnc(SCC(=O)Nc2cc(C(F)(F)F)cc(NC(=O)CSc3nnc(N)s3)c2Cl)s1	0.095	·
COc1ccc(-c2noc(CC3=NS(=O)(=O)c4ccccc4N3)n2)cc1	-1.56	0.55
CCOC(=O)NC(=S)Nc1cc(C)cc(C)n1	0.385	-1.1
CCOC(=O)C1=C(c2ccccc2)NC(=S)NC1c1ccc2c(c1)OCO2 (stereo not drawn)	-1.09	·
Cc1nnc(SCC(=O)N2CCOCC2)s1	0.26	2.45
CC1(C)C(=O)Nc2ccccc2N1C(=O)CSc1nnc2ccccn12	·	-0.2
Cc1cc(C)cc(NC(=O)C2CCN(Cc3cnn(-c4ccccc4)c3-n3cccc3)CC2)c1	-0.075	-0.25
CCOC(=O)c1ccc2oc3ccc(O)cc3c(=O)c2c1	0.6	·
Cc1ccc2nc(SC/C(O)=C(\C#N)c3nc4ccccc4[nH]3)[nH]c2c1	·	0.15
COc1cc(NC(C)=O)ccc1-c1cc2ccccc2oc1=O	·	-0.45
CCN(CC)c1ccc(C2CC(=O)C3=C(C2)Nc2ccccc2NC3c2ccc(OC)cc2)cc1 (stereo not drawn)	-0.625	·
O=C(CC(=O)NC1CCCCCC1)Nc1ccc2nc3n(c(=O)c2c1)CCCCC3	0.46	-0.35
CCc1ccc(N2C(=O)C3C4c5ccccc5C(C(C)=O)(c5ccccc54)C3C2=O)cc1 (stereo not drawn)	0.135	·
CC(Nc1ccc(Cl)cc1)C(=O)Nc1ccc(S(N)(=O)=O)cc1 (stereo not drawn)	·	-0.35
Cc1ccc(OCCNCCN)c(Br)c1	-0.115	-0.45
O=C(CCCCCn1c(=S)[nH]c2ccccc2c1=O)NC12CC3CC(CC(C3)C1)C2	1.1	·
CCOC(=O)c1cnc2c(OC)cccc2c1N1CCN(c2ccc(OC)cc2)CC1	0.52	-0.95
COc1cc(OC)nc(CSc2nc3ccccc3[nH]2)n1	-0.72	·
CCOc1cc(C(=O)Nc2c3c(nn2-c2ccc(OC)cc2)CS(=O)(=O)C3)cc(OCC)c1OCC	-0.06	·
O=C(O)Cn1c(=O)oc2ccccc21	-0.59	0.35
CC(=O)C(Sc1nnc(-c2ccc(Cl)cc2)n1-c1ccccc1)C(=O)N(C)C (stereo not drawn)	-0.14	·
CC(=O)c1c(C)oc2ccc(N(C(=O)c3ccncc3)S(=O)(=O)c3cccc([N+](=O)[O-])c3)cc12	-1.06	·
O=C(CCn1c(=O)oc2ccccc21)NCCCN1CCCC1=O	·	0.25
CCC(NC(=O)NC1CCCCC1)c1ccccc1 (stereo not drawn)	0.69	-0.15
O=C(c1ccc(-n2nc(C(F)(F)F)c3c2-c2ccoc2CC3)cc1)N1CCCc2ccccc21	0.01	0.3
Cc1cccc(N2CCN(CC(=O)N(C)Cc3ccccc3)CC2C)c1 (stereo not drawn)	·	-0.1
O=C(CCN1C(=O)C2C3C=CC(C3)C2C1=O)Nc1cc(C(F)(F)F)cc(C(F)(F)F)c1 (stereo not drawn)	-0.14	·
Cc1nnn(C23CC4CC(CC(CC(=O)Nc5ccc(Cl)cc5)(C4)C2)C3)n1	1.31	-1.2
CC(C)(C)N1CC(COc2ccccc2)OC1=O (stereo not drawn)	-0.22	-0.55
O=S1(=O)C=C(Sc2nnnn2-c2ccccc2)c2ccccc21	·	-1.3
Nc1nonc1-c1noc(-c2ccccc2)n1	-0.13	-0.15
Cc1noc(C)c1S(=O)(=O)NCCN1CCN(c2ccccc2F)CC1	3.44	-0.75
O=S(=O)(c1cc(Cl)ccc1Cl)N1CCOCC1	0.77	·
O=C1c2ccccc2C(=O)N1CCOc1ccccc1	-0.95	1.7
O=C(O)CCC(=O)N1CCC(O)(c2ccc(Cl)cc2)CC1	0.375	·
CC(C)C(=O)Oc1ccc2c(c1)C=CC1(O2)N(C)c2ccccc2C1(C)C (stereo not drawn)	-0.17	·
Cc1cc2c(n1-c1ccc(C(=O)N3CCN(c4ccccc4)CC3)cc1)CCCCC2	-0.89	-0.9
O=C(O)CSCC(=O)Nc1cccc(C(=O)O)c1	0.155	-1.1
COC(=O)CCC(=O)c1oc2ccc(OC)cc2c1N	-0.6	-0.6
N/C(CC(=O)Nc1ccc(F)c(F)c1F)=N\O	0.935	-0.6
CCCNS(=O)(=O)c1ccc2[nH]c(=O)ccc2c1	7.97	-1.1
CCc1nc2c(N(C)S(=O)(=O)c3ccc(C)cc3)nc3ccccc3n2n1	·	1.45
Cn1c(=O)cc(OCCCC(=O)NCc2ccccn2)c2ccccc21	-0.22	-0.05
CCOC(=O)c1sc2ccc(S(=O)(=O)N3CC(C)CC(C)C3)cc2c1N (stereo not drawn)	1.48	-0.1
CCOC(=O)N1CCC(NC(=O)c2nn(-c3ccc(OC)c(Cl)c3)c(=O)c3c2c2ccccc2n3C)CC1	0.24	0.45
Cc1onc(-c2c(F)cccc2Cl)c1C(=O)NC(CN1CCOCC1)c1ccccc1 (stereo not drawn)	1.27	-0.2
CCC(=O)NC1C(OC(C)=O)OC(COC(C)=O)C(OC(C)=O)C1OC(C)=O (stereo not drawn)	-0.075	·
O=C1/C(=C/c2ccccc2Cl)SC2N=C(c3ccccc3)NN12 (stereo not drawn)	9.87	-0.7
CCCCC(=O)c1ccc(OC(C)C)cc1	0.265	0.05
O=C(NCC1CCCCC1)c1cn(-c2ccccc2)nc1-c1cccs1	·	-0.2
CCN(CC)C(=O)CCc1nc(CN2CCN(S(=O)(=O)c3ccc(Br)cc3)CC2)no1	-1.01	0.95
COc1cccc(N=Nc2c(N)[nH]n(-c3ccccc3)c2=O)c1	-0.76	0.45
CN(C(=O)CN(CCOC(=O)N1CC=C(n2c(=O)[nH]c3ccccc32)CC1)CC(=O)N(C)C(C)(C)Cc1ccccc1)C(C)(C)Cc1ccccc1	-0.895	·
COc1ccccc1C(=O)COC(=O)Cc1ccc(Cl)cc1Cl	-0.005	-0.05
O=c1sc2ccccc2c2nc[nH]c12	·	-0.05
COc1ccc(CN2C(=O)C(C)Oc3ccccc32)cc1 (stereo not drawn)	·	-0.4
COc1cc(CCNC(=O)CNC(=O)CNC(=O)c2ccc([N+](=O)[O-])cc2)cc(OC)c1O	-0.94	·

Next part:
canonical_smiles	CapD inh	AID504770
CN(C)c1cccc(C(=O)OCC(=O)NCc2ccccc2)c1	0.24	0.4
NC1=NS(=O)(=O)c2ccccc21	·	1.6
CCNc1cc(N2CCOCC2)c2noc3c2c1C(=O)c1ccccc1-3	0.05	3.7
Cc1cc(NCc2cccnc2)n2c(nc3ccccc32)c1C#N	11	-0.2
CC(=O)Nc1cccc(-n2nnc(SCc3cc(Cl)cc4c3OCOC4)n2)c1	-0.77	-0.95
N=C1S/C(=C/c2ccc(-c3ccccc3C(=O)O)o2)C(=O)N1c1nccs1	-2.13	·
C=CCN(Cc1ccc(OC)c(OC)c1)C(=O)NC1CCCCC1	0.355	-0.1
COC(=O)c1cc(=O)nc2sc3ccccc3n12	0.85	0.25
CN(C)S(=O)(=O)c1cccc(CN2C(=O)NC3(CCCCCC3)C2=O)c1	·	-0.4
COc1cccc(Sc2cc(N3CCOCC3)nc(-c3ccccc3)n2)c1	0.26	·
COC(=O)c1scc2c(Oc3ccccc3C(F)(F)F)cc(C(F)(F)F)nc12	88.3	-0.45
c1ccc(-n2ncc3c(N4CCC5(CC4)OCCO5)ncnc32)cc1	·	0.25
CCN1CCN(C(=O)CCNC(=O)c2cc(OC)c(OC)c(OC)c2)CC1	0.02	-0.35
Cc1ccc(F)cc1S(=O)(=O)NCC1CCC2CC1C2(C)C (stereo not drawn)	-1	·
COc1ccc(NC(=O)c2cc(C)nn2-c2ccccc2)cc1	-0.905	-0.05
O=C(CN1C(=O)c2ccccc2S1(=O)=O)Nc1cccnc1	-0.545	-0.4
CCOc1ccc(-c2nc(-c3cc(C)n(CCOC)c3C)cs2)cc1	·	2.5
Cc1nn(C(=O)c2ccccc2)c(C)c1CN1C(=O)c2ccccc2C1=O	0.415	-0.7
Cc1n[nH]c(=O)c2noc(/C=C/c3ccsc3)c12	0.62	·
O=c1c2ccccc2cnn1CCc1nc2c3ccccc3ncn2n1	·	0.1
Cc1onc(NC(=O)NC(=O)c2ccccc2F)c1Br	-0.86	0
Cc1nn(Cc2ccccc2)c(Cl)c1/C=N/NC(=O)c1cccnc1	·	0.6
O=c1occ(CO)c(O)c1CN1CCc2ccccc2C1	-1.42	1.25
CC(C)=CCOc1ccc2c3c(c(=O)oc2c1C)CCCC3	0.11	0.95
Cc1c(Br)c(C(F)(F)F)nn1CC(=O)Nn1c(-c2ccc(F)cc2)nc2ccccc2c1=O	-1.59	·
Brc1ccc(OCCSc2nc3ccccc3[nH]2)cc1	-0.18	·
CN(C)C(=O)Cn1c(=O)n(C)c2ccccc21	-0.01	1.35
CCOC(=O)CC1C(=O)NCCN1S(=O)(=O)c1ccc(NC(C)=O)cc1 (stereo not drawn)	0.01	·
CC1=CCC(C(=O)Nc2nc3ccccc3s2)C(C(=O)O)C1 (stereo not drawn)	·	-1.6
Cc1cc(N2CCN(C)CC2)ccc1NC(=O)c1ccc2c(c1)NC(=O)C(C)S2 (stereo not drawn)	·	0.4
COc1nc(NCc2cccnc2)nc(N2CCC(C)CC2)n1	0.945	·
COc1ccc(NCc2csc(-c3ccccc3)n2)cc1Cl	-0.73	-0.45
CNS(=O)(=O)c1cc(C(=O)Nc2nnc(C3CC3)s2)ccc1Cl	·	0.95
Cc1cc2nc3s/c(=C\c4ccc(-c5cccc(F)c5)o4)c(=O)n3c2cc1C	0.055	1
O=C(CCn1cccc1)N1CCN(c2ccccc2)CC1	-0.695	0.65
Cc1ccc(C(=O)NCc2ccc3c(c2)cc(C)n3C)cc1	0.085	-0.7
Cc1cc(C)c2c(C(C)(C)C)nn(-c3ccc(C(=O)O)cc3)c2n1	19.5	1.7
CCOC(=O)N1CCc2c(sc(NC(=O)c3ccc(S(=O)(=O)N4CCOCC4)cc3)c2C(=O)N2CCOCC2)C1	·	2
O=C(CC12CC3CC(CC(Br)(C3)C1)C2)Nc1nncs1	0.045	-0.15
O=C1c2ccccc2C(=Cc2cccs2)c2ccccc21	-0.425	0
Cc1ccc(NC(=S)Nc2cc(C)cc(C)c2)cc1	-0.285	·
O=C(O)CCC(=O)N1N=C(c2c(-c3ccccc3)c3cc(Cl)ccc3[nH]c2=O)CC1c1ccc(F)cc1 (stereo not drawn)	12.7	·
O=C(Nc1sc2c(c1C(=O)NCc1ccco1)CCC2)c1ccc(F)cc1	4.8	0.3
CC(C)N(C(C)C)S(=O)(=O)c1ccc(N2CCC(C(N)=O)CC2)nc1	·	-0.05
COc1ccccc1CCOC(=O)N1CCC(N2CCCCC2)CC1	-0.125	·
CS(=O)(=O)N(Cc1ccccc1)Cc1nc2ccccc2c(=O)[nH]1	·	-1.1
COc1ccc(C(=O)CSc2nnc(Cc3cccs3)n2C2CC2)cc1	·	-0.15
CC1CN(CC(O)COCc2ccccc2)CC(C)O1 (stereo not drawn)	0.645	-0.15
O=C(Nc1nc(-c2ccc3c(c2)OCO3)cs1)c1cc(=O)c2ccccc2o1	-0.605	·
COc1ccccc1C(=O)Nc1ccc(S(=O)(=O)NC2=NCCCCC2)cc1	·	-0.3
O=C(Nc1nc2ccccc2n1CCOc1ccccc1Cl)c1ccc(F)cc1	-0.22	·
CCC(C)(C)c1cc2cc(NS(=O)(=O)c3ccc4oc(=O)ccc4c3)ccc2[nH]1	-0.465	·
O=C(/C=C/c1ccc2c(c1)OCO2)N/N=C/c1c[nH]c2cnc(OCc3ccccc3)cc12	-0.75	·
N#CCc1nc(-c2ccc(Cl)cc2)cs1	-0.03	·
